Source: PubChem BioAssay (National Center for Advancing Translational Sciences (NCATS))
2A StopGo: High Throughput Screening for Foot and Mouth Disease Virus Antivirals. human cells with a luciferase reporter of 2A StopGo recoding; control for the full effect not named in the record. Potency, µM (top dose mostly 57.9 µM), inactives show at the top dose signal change, negative = less light. 410,000 compounds, 1.2% hits; active = well fitted falling curve with a large enough effect; inconclusive = small, poorly fitted or top-dose-only effect; inactive = no such curve, though single readings can be large or run the other way; tested in HEK293T cells; further: on the % scale 0 is the no-effect control and ±100 the full control effect; nearly all actives have a fitted effect of over 45% in size; luciferase light after 4 h
RE007 growth inh: qHTS Assay for Inhibitors of the HIV-1 protein Vpr | S. pombe RE007 Vpr strain, BacTiter-Glo ATP luminescence, 24 h; control for the full effect not named in the record | Potency, µM (highest dose often 92.2 µM), inactives show at the highest dose activity change, negative = less growth | 360,000 compounds, 0.21% hits | AID 651644, 2012; active = well fitted falling curve with a large enough effect; inconclusive = small, poorly fitted or top-dose-only effect; inactive = no such curve, though single readings can be large or run the other way;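 further: on the % scale 0 is the no-effect control and ±100 the full control effect; nearly all actives have a fitted effect of over 50% in size; the assay follows cell death caused by Vpr and the record does not say whether a fall means rescue or toxicity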
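Fission yeast strain RE007, carrying one chromosomally integrated HIV-1 vpr copy, was seeded at OD 0.01 in PMG+AL medium with 23 nL pinned compound. After 24 h at 30 °C and 99% humidity, viability was read by BacTiter-Glo luminescence.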
SARS PLP yeast: qHTS of Yeast-based Assay for SARS-CoV PLP | S. cerevisiae expressing SARS-CoV PLpro, growth rescue; control for the full effect not named in the record | Potency, µM (series often up to 32.9 µM), for the others: at the highest dose activity, positive = growth rescue | 330,000 compounds, 0.19% hits; active means well fitted rising curve with a large enough effect; inconclusive means small, poorly fitted or top-dose-only effect; inactive means no such curve, though single readings can be large or run the other way; further: 0% is about no effect; nearly all actives have a fitted effect of over 55% in size; growth read by luminescence after 48 h
NS1 function inh: qHTS Assay for Inhibitors of Influenza NS1 Protein Function; S. cerevisiae slowed by influenza A NS1, growth recovery by OD600; Potency, µM (titrated, usually from 46.1 µM), for the others: at the top dose activity, positive = more growth; 270,000 compounds, 0.4% hits; active means well fitted rising curve with a large enough effect; inconclusive means small, poorly fitted or top-dose-only effect; inactive means no such curve, though single readings can be large or run the other way; further: nearly all actives have a fitted effect of over 50% in size
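A cell-based growth assay was used: compounds that relieve NS1-induced slow growth of budding yeast raise OD600. Assay medium was yeast nitrogen base with ammonium sulphate and -URA supplement, pH 6.0, with 2% galactose.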
LASV entry inh: qHTS for Inhibitors of binding or entry into cells for Lassa Virus; Lassa virus pseudotype entry inhibition, cell reporter; control for the full effect not named in the record; Potency, µM (highest dose often 37.9 µM), without a hit: at the highest dose activity change, negative = inhibition, most hits filed as inhibitors; 300,000 compounds, 1.2% hits; active means well fitted inhibition curve with a large enough effect; inconclusive means small, poorly fitted or top-dose-only effect, or effect the other way; inactive means flat fitted curve, though single readings scatter; tested in HEK293 cells; further: on the % scale 0 is the no-effect control and ±100 the full control effect; nearly all actives have a fitted effect of over 50% in size; luciferase read-out
Cruzain Triton: qHTS Assay for Promiscuous and Specific Inhibitors of Cruzain (with detergent). Cruzipain (Trypanosoma cruzi), P25779. purified cruzain, Z-FR-AMC fluorescence, 0.01% Triton. Potency, µM, inactives show max response, negative = inhibition, usual class: inhibitors. 200,000 compounds, 0.43% hits;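 further: plate controls were neutral wells for no effect and buffer without enzyme for full effect; nearly all actives have a fitted effect of over 40% in size; top concentration of the series not given in the record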
Target sequence (P25779 123-467 limits assumed): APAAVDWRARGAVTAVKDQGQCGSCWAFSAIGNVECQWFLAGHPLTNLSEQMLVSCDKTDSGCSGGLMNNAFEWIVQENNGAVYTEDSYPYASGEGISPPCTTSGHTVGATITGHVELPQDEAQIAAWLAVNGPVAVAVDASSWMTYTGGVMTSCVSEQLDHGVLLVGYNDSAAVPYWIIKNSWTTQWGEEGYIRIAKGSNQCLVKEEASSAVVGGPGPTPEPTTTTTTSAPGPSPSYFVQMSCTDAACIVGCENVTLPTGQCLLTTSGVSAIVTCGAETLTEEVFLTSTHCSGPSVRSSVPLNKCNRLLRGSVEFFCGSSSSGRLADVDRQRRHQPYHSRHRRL
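Sodium acetate buffer (100 mM, pH 5.5) containing 5 mM DTT and 0.01% Triton X-100 hosted 1.5 nM cruzain and test compound for 15 min at room temperature. Cleavage of 2 uM Z-FR-AMC was then tracked by fluorescence.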
Marburg entry inh: qHTS for inhibitors of binding or entry into cells for Marburg Virus. Marburg virus pseudotyped entry inhibition, cell reporter; control for the full effect not named in the record; about a third of the inactives were read at about 46 µM. AID 540276, 2011. Potency, µM (top dose mostly 37.8 µM), for inactives: top-dose activity change, negative = inhibition, usual class: inhibitors. 300,000 compounds, 1.8% hits; active = well fitted inhibition curve with a large enough effect; inconclusive = small, poorly fitted or top-dose-only effect, or effect the other way; inactive = flat fitted curve, though single readings scatter; tested in HEK293 cells; about a fifth of its hits are not listed in these tables; further: on the % scale 0 is the no-effect control and ±100 the full control effect; luciferase read-out
Cruzain noTriton: qHTS Assay for Promiscuous and Specific Inhibitors of Cruzain (without detergent) | Cruzipain (Trypanosoma cruzi), P25779 | purified cruzain, Z-FR-AMC fluorescence, no detergent | Potency, µM, inactives show max response, negative = inhibition, usual class: inhibitors | 200,000 compounds, 2.3% hits;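 further: plate controls were enzyme without inhibitor for no effect and buffer without enzyme for full effect; nearly all actives have a fitted effect of over 40% in size; top concentration of the series not given in the record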
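Purified cruzain at 1.5 nM, pre-incubated 15 min with compound at room temperature in 100 mM sodium acetate pH 5.5, 5 mM DTT, 0.00005% Triton X-100. Reaction started with 2 uM Z-FR-AMC; AMC fluorescence increase over 60 s gives rate.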
* = called active by the depositor; ? = inconclusive; . = no result given; [ ] = dose if it differs, or a comment. Unless noted, the call rests on the fitted dose curve; in most records, active means well fitted curve in the direction sought with a large enough effect; inconclusive means small, poorly fitted or top-dose-only effect, or another doubt; inactive means no such curve, though single readings can be large; an effect the other way counts as inactive or inconclusive. Potency means the concentration at half of the fitted maximal effect.

SMILES	2A StopGo	RE007 growth inh	SARS PLP yeast	NS1 function inh	LASV entry inh	Cruzain Triton	Marburg entry inh	Cruzain noTriton
CCNc1ccc(Br)cc(C(=O)/C=C/c2c(Cl)cccc2Cl)c1=O	32µM*	-1%	-35%	-9%	?	-27%	?	-13%
CN(C)c1ccc(-c2c(-c3ccc4c(c3)OCO4)noc2-c2ccsc2)cn1	8%	-17%	-13%	-11%	.	.	.	.
Cc1ccccc1OCC(=O)N/N=C/c1sc(=O)n(Cc2cccc(C(=O)O)c2)c1Cl	-3%	-16%	1%	?	-17%	.	-1%[46.1 µM]	.
O=C(CSc1nnc(-c2ccncc2)n1Cc1ccco1)Nc1nccs1	-6%	?	?	3%	-7%	-2.0%	0%	4%
Cc1cc(NC(=O)CSCC(=O)Nc2cccc(S(=O)(=O)N3CCCCCC3)c2)no1	-17%	-10%	-1%	.	-29%	.	-26%[46.1 µM]	.
COc1ccccc1NC(=O)CN1CCN(CC(=O)Nc2ccc(F)c(F)c2)CC1	?	.	.	.	0%[46.1 µM]	0.0%	.	-1%
CCOc1ccc(NC(=O)c2oc3ccccc3c2NC(=O)Cc2ccc(OC)c(OC)c2)cc1	60%[activator]	.	.	.	-14%[46.1 µM]	-1.6%	?	17%
CSc1ccccc1NC(=O)c1cnccn1	19%	5%	-2%	-6%	-2%	0.6%	6%	-3%
Cc1ccc(C(=O)NCCSc2c(C)[nH]c3ccccc23)cc1[N+](=O)[O-]	35µM*	6%	-20%	-30%	?	-7.5%	9%	-2%
CC(=O)CSc1nnc2cc(C)c3cc(C)cc(C)c3n12	5%	.	.	.	8%[46.1 µM]	-6.3%	9%[46.1 µM]	3%
CCn1ncc(Br)c1C(=O)Nc1cc(C(=O)OC)ccc1C(=O)OC	35%[activator]	1%	0%	-6%	4%	3.4%	7%	4%
COc1ccc(NC(=O)Cn2cc(S(=O)(=O)c3ccccc3)c(=O)c3cc(C)ccc32)cc1Cl	32%[activator]	.	.	.	-17%[46.1 µM]	-4.0%	-9%[46.1 µM]	25µM*
Nn1c(Nc2ccccc2)nc2sc3c(c2c1=O)CCC3	-25%	-7%	-7%	-6%	?	-3.4%	?	3%
CCOc1ccc(NC(=O)/C(C#N)=C/c2cn(CC(=O)O)c3ccccc23)cc1	8%	8%	6%	?	16%	.	-3%	.
CN(C)S(=O)(=O)c1cccc(C(=O)Nc2ccc(S(=O)(=O)N3CCCC3)cc2)c1	-21%	-5%	-1%	5%	.	.	.	.
Cc1ccc(S(=O)(=O)O/N=C2/CCCc3occc32)cc1	-10%	-1%	2%	9%	11%	2.1%	7%[46.1 µM]	-4%
CC(=O)c1ccc(S(=O)(=O)Nc2cccc(-c3ccc(N4CCCCC4)nn3)c2)cc1	20%	.	.	.	-23%[46.1 µM]	-6.2%	.	-18%
COc1ccccc1N(C(=O)CNC(=O)c1ccco1)C(C(=O)NC1CCCC1)c1ccco1 (stereo unspecified)	23%	34%	-1%	5%	-30%	.	-19%[46.1 µM]	.
O=S(=O)(CCSc1ccc(C(F)(F)F)cn1)c1ccccc1	14%	-15%	0%	-3%	.	.	.	.
COc1ccc(-c2nc(C#N)c(N3CCN(C(=O)c4ccco4)CC3)o2)cc1OC	-16%	4%	-3%	4%	.	.	.	.
O=C(CSc1ccc(Cl)cc1)NC(=O)NCc1ccco1	-15%	-10%	-5%	.	?	.	-18%[46.1 µM]	.
O=C(CSc1ccccn1)Nc1ccc2c(c1)OCCO2	57%[activator]	1%	-4%	-9%	?	.	4%[46.1 µM]	.
Cc1cc(=O)oc2cc(OCC(=O)NC3CCCCC3)ccc12	26%	6%	1%	-2%	6%	.	-12%[46.1 µM]	.
Cc1ccc(C(=O)c2sc3nsc(C)c3c2N)cc1	11%	-6%	14%	5%	?	-4.0%	?	-5%
Cc1cccnc1Nc1nc(-c2ccc(O)cc2O)cs1	-10%	-5%	-35%	-66%	9%	-22%	?	8%
Cc1ccsc1/C=N/NC(=O)c1nnn(-c2nonc2N)c1-c1ccc2c(c1)OCO2	8%	1%	-1%	2%	-8%[46.1 µM]	.	8%[46.1 µM]	.
CN1CCN(c2ccc(S(=O)(=O)N3CCCCC3)cc2NC(=O)Cc2ccc(Cl)cc2)CC1	0%	3%	0%	-2%	24%	-1.0%	?	1%
Cc1cc(C)n(-c2ccc(NC(=O)C3CCCCN3Cc3cccc4c3OCO4)cc2)n1 (stereo unspecified)	-20%	5%	-13%	-11%	1%	.	?	.
O=C(Oc1ccc2cccc(OC(=O)N3CCOCC3)c2c1)N1CCOCC1	-12%	6%	1%	-12%	5%	2.9%	3%	-2%
COc1ccc(-c2c(C)nn3c(C)cc(C)nc23)cc1	-27%	-15%	0%	-9%	6%	.	13%	.
CC(=O)N1N=C(c2ccccc2)CC1c1cccc([N+](=O)[O-])c1 (stereo unspecified)	-10%	8%	-2%	11%	0%	.	0%	.
Cc1nn(CC(=O)NCc2cccs2)c(=O)c2nn(-c3ccccc3)c(C)c12	-4%	-8%	12%	2%	2%[46.1 µM]	.	2%[46.1 µM]	.
CN(C(=O)COc1ccc(Cl)cc1)C1(C)CCS(=O)(=O)C1 (stereo unspecified)	-5%	-12%	-6%	.	-10%	.	1%[46.1 µM]	.
O=C(NCCN1CCOCC1)c1ccc(N2CCCC2)c([N+](=O)[O-])c1	-12%	-6%	2%	.	?	.	17%[46.1 µM]	.
COc1ccccc1NC(=O)CC1Sc2ccc(C(F)(F)F)cc2NC1=O (stereo unspecified)	0%	.	.	.	-5%[46.1 µM]	-2.5%	.	-2%
Cc1cc2c(OCC(O)CN3CCCCC3)cccc2[nH]1 (stereo unspecified)	-4%	-16%	2%	.	-13%[46.1 µM]	.	-11%[46.1 µM]	.
COc1ccc(COCC(O)CN(Cc2ccco2)Cc2ccccc2O)cc1 (stereo unspecified)	0%	6%	0%	-6%	?	-1.3%	-23%	7%
C=CCn1nnnc1SCC(=O)Nc1cccc(C(F)(F)F)c1	-13%	6%	?	-3%	1%	.	14%	.
CCOC(=O)Cc1csc(NC(=O)CSc2nnc(-c3ccncc3)o2)n1	-18%	23%	0%	6%	11%[46.1 µM]	.	-15%[46.1 µM]	.
CCOC(=O)c1sc(NC(=O)c2ccco2)nc1C	20%	-10%	?	-14%	-13%	1.6%	18%	-2%
Cc1cccc(Cn2cc3c(=O)n(CC(=O)Nc4cccc(C)c4C)nc-3c3cc(F)ccc32)c1	-4%	.	.	.	-16%[46.1 µM]	-1.9%	.	-1%
COc1ccc(C(=O)N/C(=C/c2cccnc2)C(=O)N2CCOCC2)cc1OC	0%	19%	-1%	6%	19%	.	-9%	.
O=C(COC(=O)c1cc(=O)[nH]c2ccccc12)Nc1ccc(Cl)cn1	-4%	0%	.	.	7%	.	0%	.
C/C(=C\c1ccccc1)C1NC(=O)c2c(sc3c2CCCC3)N1 (stereo unspecified)	-25%	-7%	-20%	12%	.	-8.5%	.	10%
Cc1ccccc1NC(=O)c1c(NC(=O)C(F)(F)F)sc2c1CCCCC2	?	.	.	.	?	-5.4%	.	-4%
CCN(CC)CCCNC(=O)c1ccccc1C	-12%	8%	4%	-1%	-32%[14.3 µM]	2.3%	-23%	-8%
CCOC(=O)c1c(NC(=O)CN2CCOCC2)sc2c1CCCC2	-18%	0%	?	-63%	5%	-9.9%	0%	?
Cc1c(O)c(=O)ccn1Cc1ccccc1	-18%	5%	10µM*	?	-16%	-1.1%	?	-6%
Cc1cc(N2CCOCC2)ccc1/C=C1\NC(=O)N(Cc2ccccc2)C1=O	-23%	19%	-1%	-16%	.	.	.	.
O=C(Cn1nc(-c2cccc(Cl)c2)ccc1=O)NCC1COCCO1 (stereo unspecified)	-2%	-10%	-2%	.	-31%	.	11%[46.1 µM]	.
O=C(NCC(=O)N(Cc1ccc(F)cc1)C(C(=O)NCC1CCCO1)c1ccccc1)c1ccco1 (stereo unspecified)	-13%	-1%	0%	1%	3%	.	-4%	.
Cc1ccc(NC(=O)CSc2nc3[nH]ncc3c(=O)[nH]2)cc1	-13%	5%	-2%	.	-5%	.	-24%[46.1 µM]	.
CCCN(CC(=O)Nc1ccccc1C)C(=O)C1CCN(S(=O)(=O)c2ccccc2C(F)(F)F)CC1	-17%	40%	-7%	.	4%[46.1 µM]	.	-3%	.
O=C(Cn1c(=O)oc2cc(S(=O)(=O)N3CCCC3)ccc21)Nc1ccccc1Br	-27%	-15%	2%	2%	?	.	-3%	.
CCCC(=O)c1ccc(N2CCCCC2)c(F)c1	56%[activator]	-6%	0%	-2%	0%	.	-2%	.
COc1ccc(-c2ccccc2)cc1NCc1ccccc1C	27%	?	-2%	-6%	12%	-7.0%	26%	4%
COc1cc(C2c3c(oc4ccccc4c3=O)C(=O)N2c2nncs2)cc(OC)c1OC (stereo unspecified)	8%	.	.	.	?	-0.7%	0%[46.1 µM]	6%
Cc1ccc(/C=N/n2c(-c3cccc(Cl)c3)n[nH]c2=S)o1	-27%	-2%	0%	2%	-7%[46.1 µM]	.	-1%[46.1 µM]	.
COc1ccc(C)cc1NC(=O)CN(Cc1nnc(-c2ccc(Cl)cc2)o1)C1CCCC1	-2%	16%	-10%	-60%	-1%	-4.9%	?	-7%
CCN1CCN(C(=O)c2ccc3c(c2)N(Cc2ccc(Cl)cc2)C(=O)c2ccccc2S3(=O)=O)CC1	-14%	.	.	.	-9%[46.1 µM]	-0.4%	-29%[46.1 µM]	7%
New compounds follow
SMILES	2A StopGo	RE007 growth inh	SARS PLP yeast	NS1 function inh	LASV entry inh	Cruzain Triton	Marburg entry inh	Cruzain noTriton
Cc1cccc(-n2nnnc2SCC(=O)c2cc(C)n(Cc3ccco3)c2C)c1	-10%	1%	4%	4%	-9%	2.9%	?	-20%
Cc1ccc(C)c(SCC(=O)NNC(=O)c2csc(N3CCOCC3)n2)c1	2%	-10%	3%	1%	.	.	.	.
CC1(C)NC(=O)N(CCOCCOc2ccccc2)C1=O	-12%	-12%	1%	7%	-9%	2.6%	?	9%
CCc1nnc(NC(=O)OCc2ccccc2)s1	.	16%	-10%	6%	13%	-0.3%	9%	-6%
O=C(NC1CCCC1)C(c1cc2c(cc1[N+](=O)[O-])OCO2)N1CCCC1 (stereo unspecified)	25%	1%	-1%	-1%	?	.	-27%	.
